Rce1 inhib: yeast Ras-converting enzyme inhibition. Q03530. yeast membranes, quenched prenylated peptide cleavage fluorescence. calls only. 290,000 compounds, 0.27% hits. AID 2563;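 active = fall in fluorescence gain of 50% or more versus controls, with final raw signal at or below 3038400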;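 note: plate controls were neutral control wells for no effect and wells lacking membranes for full effect; tested at 10 µM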
Yeast UUG start: modulators of start codon recognition fidelity in yeast; 350,000 compounds, 0.13% hits; activity score, % at 18.7 µM; S. cerevisiae UUG-firefly luciferase reporter, luminescence/redox ratio;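 active = replicate mean at a twofold rise or more, about +100% in these data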;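 note: firefly luciferase made from a UUG start codon reports start codon fidelity; reporter light over untreated wells divided by growth signal over untreated wells; some hits fall short of that in this replicate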
MT1-MMP act inh: inhibitors of human MT1-MMP activation; HT1080 RFP-PRO-GFP cells, GFP/RFP ratio fluorescence, overnight; percent of plate control window, DMSO zero; AID 651647; GFP/RFP ratio change, % at 20 µM; P50281; 360,000 compounds, 0.061% hits;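 active = GFP/RFP ratio change of at least 30% with cell ATP level not reduced by more than half and red fluorescence within 50% of control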; note: strong numbers were not always called active
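Assay system: HT1080 cells carrying an RFP-PRO-GFP reporter | Dosing: Single dose of 20 µM compound, 1% DMSO final | Incubation: Cells overnight before dosing, compound overnight, 37 °C, 5% CO2 | Evaluation: GFP/RFP fluorescence ratio | Control set: DMSO and RFP-L50D-GFP cell wells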
CSC inhib: cancer stem cell inhibition | inhibition, % at 7.5 µM | cancer stem cell-like cells viability, luminescence | 300,000 compounds, 1.1% hits;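 active = mean at 75% or more and at least half the replicates too; tested in HMLE shEcad cells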;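 note: 0% = median of negative and 100% = median of positive control wells; the first replicate is given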
HIV Env fusion: inhibitors of HIV Env-mediated cell fusion | HeLa-JRFL Env/CEM21 cell fusion, luciferase | inhibition, % at 12.3 µM | 360,000 compounds, 1.1% hits | AID 651610;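 active = mean replicate inhibition score of at least 50 and every replicate individually at or above 50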;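 note: 0% = plate neutral controls and 100% = maraviroc near 300 nM; one replicate is shown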
eIF4H inh: inhibitors of RNA binding by human eIF4H | eIF4H fluorescence polarization binding assay | AID 2012 | Q15056 | 290,000 compounds, 0.94% hits | inhibition, % at 35 µM;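 active = 50% or more with normal probe brightness, or confirmed in later tests; about a fifth of its hits are not listed in these tables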;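 note: calls also rest on retests at 20 µM and on dose response follow-up; 0% = protein and probe with vehicle and 100% = probe without protein; strong numbers were not always called active; many hits fall short of the cut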
PABP polyA inh: blocks human PABP binding to poly(A) RNA. P11940. fluorescence polarization. inhibition, % at 35 µM. 290,000 compounds, 1% hits. AID 2014;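 active = 50% or more with normal probe brightness, or confirmed in later tests; about a fifth of its hits are not listed in these tables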;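 note: calls also rest on retests at 20 µM and on dose response follow-up; controls were probe without protein and protein plus probe with vehicle; some compounds called inactive have numbers as strong as hits; many hits fall short of the cut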
Target sequence (P11940 whole entry, looked up): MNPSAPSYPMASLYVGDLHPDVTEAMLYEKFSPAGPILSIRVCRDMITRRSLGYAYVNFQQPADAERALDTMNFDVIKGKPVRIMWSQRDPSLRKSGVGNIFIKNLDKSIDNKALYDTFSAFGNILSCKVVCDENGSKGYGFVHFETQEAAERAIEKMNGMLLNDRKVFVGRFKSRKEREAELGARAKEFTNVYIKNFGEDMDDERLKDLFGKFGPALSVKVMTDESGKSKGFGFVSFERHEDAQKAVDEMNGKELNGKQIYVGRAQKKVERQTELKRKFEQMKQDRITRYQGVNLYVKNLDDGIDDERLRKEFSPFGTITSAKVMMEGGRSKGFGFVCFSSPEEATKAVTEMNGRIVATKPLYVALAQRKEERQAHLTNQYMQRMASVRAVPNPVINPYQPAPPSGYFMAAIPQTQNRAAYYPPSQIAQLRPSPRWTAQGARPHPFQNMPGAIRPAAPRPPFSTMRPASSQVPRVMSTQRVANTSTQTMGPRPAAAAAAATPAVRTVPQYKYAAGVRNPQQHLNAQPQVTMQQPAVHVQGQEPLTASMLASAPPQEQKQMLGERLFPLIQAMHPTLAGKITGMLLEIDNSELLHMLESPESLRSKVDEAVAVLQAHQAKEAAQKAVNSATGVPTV
eIF4H inh retest: recorded beside eIF4H inh, whose call it bears; inhibition, %; compound at 20 µM; confirmation average;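 mean of two retest wells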
PABP polyA inh retest: also measured in PABP polyA inh; calls as there; inhibition, %; compound at 20 µM; confirmation repeats;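 mean of two retest wells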
MT1-MMP act inh RFP: further read-out of MT1-MMP act inh, marked with its call; RFP signal change, %; measured here: RFP expression control read;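 0 = vehicle wells; hits needed this value within 50% of zero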
* = called active by the depositor; i = inactive; x = not tested or not shown.

SMILES	Rce1 inhib	Yeast UUG start	MT1-MMP act inh	MT1-MMP act inh RFP	CSC inhib	HIV Env fusion	eIF4H inh	PABP polyA inh	others
COc1ccc(CCNC(=O)CSc2cccc3cccnc23)cc1OC	i	-10.7	9.5	4.8	-4.7	13.6	-6.3	-12.0
CCCNC(=O)NC(C(=O)OC)C12CC3CC(CC(C3)C1)C2 (stereo unspecified)	i	1.2	-0.8	1.9	3.1	x	-10.1	13.6
O=C(NCCC1=CCCCC1)c1cc(S(=O)(=O)N2CCOCC2)c(Cl)cc1Cl	i	11.4	-2.4	-14.5	-9.5	5.6	x	x
COCCn1c(SCC(=O)Nc2ccccc2OC)nc2c([nH]c3ccccc32)c1=O	i	-4.6	-7.3	-5.7	5.9	92.3*	5.3	-3.9
O=C(O)c1cc(S(=O)(=O)O)cc(Nc2c3ccccc3nc3ccccc23)c1O	i	-2.2	0.3	-10.0	-7.6	-9.6	98.4*	41.3*	eIF4H inh retest=91.2*;PABP polyA inh retest=61.5*
O=c1[nH]c(CN2CCN(c3ccc([N+](=O)[O-])cc3)CC2)nc2ccsc12	i	-17.2	4.6	-9.2	-11.3	x	0.8	4.1
COc1ccc2c(/C=N/NS(=O)(=O)c3ccc(C)cc3)c[nH]c2c1	i	-11.9	3.4	4.5	-15.8	-15.3	1.2	2.7
O=C(CN1CCOCC1)NCCc1ccccc1	i	0.1	-1.2	0.5	-11.5	-14.0	1.0	-9.7
COc1ccc(CN(Cc2ccc(C(=O)O)cc2)C(=S)Nc2cc(C)cc(C)c2)cc1OC	i	-23.5	5.9	9.0	2.9	2.7	16.4	5.6
Cc1c(CCC(=O)O)c(=O)oc2c(C)c3occ(-c4ccc(Cl)cc4)c3cc12	i	-16.5	14.3	-6.9	-1.8	-8.2	-2.9	32.8
Cc1ccc(C(=O)NCC(=O)OCC(=O)NCCNC(=O)COC(=O)CNC(=O)c2ccc(C)cc2)cc1	i	x	0.5	0.3	-1.3	-231.6	x	x
CCC(C)(NC(=O)c1ccccn1)C(=O)NC1CCCC1 (stereo unspecified)	i	x	-1.0	5.6	-15.4	-1.1	3.6	5.8
Cc1noc(C)c1CSCC(=O)Nc1nc2ccc(F)cc2s1	i	-21.6	-0.3	2.0	-11.3	11.2	x	x
O=[N+]([O-])c1ccc(-c2nn(-c3ccccc3)cc2/C=N/n2c(-c3ccncc3)n[nH]c2=S)cc1	i	-1.2	3.8	-4.1	11.6	-7.3	53.8	10.8	eIF4H inh retest=-12.3;PABP polyA inh retest=0.0
O=[N+]([O-])c1ccccc1N(S(=O)(=O)c1ccccc1)S(=O)(=O)c1ccccc1	x	-19.8	-3.9	-1.3	x	22.6	x	x
O=C(CSc1nnnn1C1CCCC1)NCCc1ccccc1	i	-34.6	-1.8	4.2	6.3	-4.4	-5.2	-4.7
OC(CN1c2ccccc2Sc2ccccc21)Cn1nnc2ccccc21 (stereo unspecified)	i	-3.5	-11.0	-8.1	33.6	-70.3	-1.3	-1.4
CCOC(=O)CCCNC(=O)COC(=O)c1cc2ccccc2cc1O	i	-5.4	-2.7	2.1	7.1	-1.7	0.2	7.8
CN1N=C(C(=O)N2CCCC(C(=O)c3cccc(C(F)(F)F)c3)C2)CCC1=O (stereo unspecified)	x	x	4.9	0.7	-4.9	11.1	1.9	-1.4
CCCCNS(=O)(=O)c1ccc(S(=O)(=O)NCc2ccncc2)cc1	i	-13.7	9.3	-23.3	8.6	x	-12.9	9.1
CCOC(=O)CN1C(=O)S/C(=C/c2ccc(C)o2)C1=O	i	3.0	-5.3	7.0	9.2	-22.5	2.6	2.3
Cc1ccc(C(=O)NNC(=O)CSc2nnc3ccccn23)cc1	x	-16.6	0.5	3.6	-13.9	0.1	x	x
CCC(=O)Nc1sc(C(=O)N2CCCCC2)c(C)c1C#N	i	-6.0	-3.0	-2.1	-4.4	x	-2.8	-15.4
CC(=O)Nc1ccc(NC(=O)c2nccnc2C(=O)O)cn1	i	-16.7	0.0	2.5	-1.5	-5.4	72.7	20.7	eIF4H inh retest=4.7;PABP polyA inh retest=5.7
Cc1ccc(S(=O)(=O)/N=C(/c2ccccc2)N2CCOCC2)cc1	i	x	2.3	3.0	-27.4	-4.5	-0.5	-3.4
CCC(C)NCC(=O)Nc1ccc([N+](=O)[O-])cc1C(=O)Nc1ccccc1F (stereo unspecified)	i	-2.9	-1.5	1.8	-12.7	5.1	-12.1	-1.1
CCN(Cc1ccccc1)S(=O)(=O)c1ccc(C(=O)N(CCCN(C)C)c2nc3c(F)cccc3s2)cc1	i	-2.2	1.6	1.5	1.9	0.2	-16.7	-7.5
OC[C@@H]1CN(Cc2ccc(Cl)cc2)C[C@H](n2cnc3c(NCc4ccncc4)ncnc32)O1	x	-12.0	1.2	-6.1	x	8.5	x	x
CCOc1ccccc1/C=N/NC(=O)C[n+]1ccccc1	x	-1.1	1.5	3.7	x	1.0	x	x
COCC(C)n1c(C)cc(C(=O)CSc2ccc(NC(C)=O)cc2)c1C (stereo unspecified)	i	-5.8	1.4	2.2	14.7	x	1.7	7.5
O=C(COC(=O)COc1ccccc1[N+](=O)[O-])Nc1ccc2c(c1)OCO2	x	-8.7	3.8	-1.7	-11.3	-7.6	x	x
COC(=O)c1c(NC(C)=O)sc(C(=O)Nc2ccccc2C)c1C	i	x	1.0	-2.2	-1.5	-16.0	-12.9	-9.7
CCOc1cc(NC(=S)NCC2CCCO2)c(OCC)cc1NC(=O)CC(C)C (stereo unspecified)	i	x	4.1	1.6	x	-4.7	1.7	-7.1
O=C(Cc1ccc(Cl)cc1)NCc1nc(-c2ccccc2)no1	i	x	1.1	-2.8	6.5	x	-15.4	-3.2
COc1ccccc1C(=O)COC(=O)CSCC(=O)Nc1cc(C)on1	i	9.6	-1.1	-0.2	9.1	-2.7	x	x
COc1cc(CNC2CCCCCCC2)c(Br)cc1OCCO	i	-7.3	-1.0	1.7	1.7	-37.6	-4.2	-2.3
Cc1ccsc1C(=O)NN=C1CCCCCC1	i	-1.2	-4.6	-0.5	-6.2	-15.0	-7.2	-11.9
CC12CCC(C(=O)Nc3nc4ccccc4s3)(OC1=O)C2(C)C (stereo unspecified)	i	-2.5	2.6	4.1	-6.8	-19.6	-2.9	-4.5
O=C(Nc1cc(C(F)(F)F)ccc1N1CCCCC1)c1cccc([N+](=O)[O-])c1	i	-8.1	-2.1	-2.6	32.6	98.0*	-2.2	-5.8
Cc1cccc(OCC(=O)Nc2ccccc2F)c1	i	x	-2.0	0.6	-0.6	-16.7	-13.0	-6.5
O=C(c1cccs1)N1CCC(c2nc(-c3ccc(S(=O)(=O)N4CCOCC4)cc3)no2)CC1	i	12.5	0.4	-6.7	0.0	-7.2	-11.8	0.7
CSCCC(=O)N1CCCC(CNC(=O)c2ccc(-c3ccccc3)cc2)C1 (stereo unspecified)	i	x	-1.6	-0.2	-10.4	1.4	-13.3	-12.9
Cc1ccccc1NC(=O)/C(=C/c1ccco1)c1ccccc1	i	-7.5	-0.7	-3.8	10.9	x	-7.1	-1.7
O=C(NCCc1ccccc1)C1CCC(=O)N(Cc2ccc(Cl)cc2)C1 (stereo unspecified)	i	0.0	-0.6	-1.9	-1.5	10.5	-16.2	3.8
CC(C)(C)OC(=O)N1CCC(Cc2cc(-c3ccccc3)no2)(C(=O)O)CC1	i	13.3	5.4	5.7	4.6	-3.9	-2.3	2.3
Cc1ccccc1C(=O)Nc1cccc(C(=O)Nc2ccccc2C(=O)O)c1	i	-10.7	0.4	-1.8	-4.0	-1.2	0.7	11.6
O=C(NC(=O)N1CCSCC1)c1c(Cl)cccc1Cl	i	x	-1.5	0.0	0.0	-5.1	3.9	-10.6
CCN(CC(=O)Nc1ccccc1OC)CC(=O)Nc1ccccc1-c1ccccc1	i	x	-6.5	-12.0	34.3	27.3	-14.9	-11.4
CCOC(=O)CNC(=O)Cn1cnc2c(nnn2-c2cccc(OC)c2)c1=O	i	-14.8	4.2	5.9	-5.6	-1.7	-3.2	-6.6
CCCn1c(=NC(=O)CCS(=O)(=O)c2ccccc2)sc2cc(S(N)(=O)=O)ccc21	i	-8.4	x	x	-1.9	-44.3	x	x
CC(=O)Nc1cccc(-c2ccnc3c2CC(C)(C(=O)NCc2ccco2)O3)c1 (stereo unspecified)	x	-6.5	12.6	-5.2	x	-160.3	x	x
CC1=Nn2c(nc(-c3ccccc3)c2-c2ccccc2)NC(=O)C1Br (stereo unspecified)	i	-1.2	-6.5	1.1	-13.2	x	13.9	18.3
COc1ccc(CC(=O)Oc2ccc(Br)cc2F)cc1S(=O)(=O)N1CCOCC1	i	9.9	-0.4	3.9	-3.5	-5.9	x	x
O=c1c2ccccc2nc(SCc2cn3ccsc3n2)n1-c1ccc(F)cc1	i	-29.1	4.4	-5.4	-5.5	x	1.8	-3.0
Cc1ccc(NC(=O)CCN2C(=O)C3CCCCC3C2=O)cc1[N+](=O)[O-] (stereo unspecified)	i	-1.1	0.8	1.4	-13.3	-65.1	x	x
O=C(Oc1ccc2ccccc2c1)c1cncc(Br)c1	i	x	2.8	3.9	-12.7	x	-4.0	-9.5
CC1C(=O)N2CCCc3cc(S(=O)(=O)N(C)Cc4ccccc4)cc1c32 (stereo unspecified)	i	-5.2	3.1	2.4	3.3	19.9	-14.0	-6.5
O=C(c1cccs1)N1CCCc2ccccc21	i	6.1	0.7	2.9	6.4	x	-2.6	-3.2
Cc1ccc(NC(=O)COc2ccccc2C(=O)NCCN(C)C)cc1	x	x	x	x	5.0	x	0.7	15.0
C=CCn1c(SCc2cccc(OC)c2)nnc1-c1ccncc1	i	-3.2	4.9	-4.7	-1.1	5.5	-8.1	-5.4
(more compounds)
SMILES	Rce1 inhib	Yeast UUG start	MT1-MMP act inh	MT1-MMP act inh RFP	CSC inhib	HIV Env fusion	eIF4H inh	PABP polyA inh	others
Cc1c(C)c2ccc(OCC(=O)N3CCOCC3)c(C)c2oc1=O	i	-1.8	6.6	4.2	2.0	-11.9	-3.7	-9.9
CCN(CC(=O)Nc1ccccc1C(F)(F)F)C(=O)CN1C(=O)NC(C)(c2ccc3ccccc3c2)C1=O (stereo unspecified)	x	3.8	5.2	-2.2	x	-1.3	x	x
CCC1(C)NC(=O)N(CC(=O)N2CCC(Cc3ccccc3)CC2)C1=O (stereo unspecified)	x	-4.0	0.8	0.0	x	-11.4	x	x
O=C(Cc1n[nH]c(=O)c2ccccc12)OCC(=O)N(Cc1ccccc1)Cc1ccccc1	i	2.0	-0.1	-4.8	5.1	22.1	-7.4	-2.4
CC1CN(c2oc(Cc3cccc4ccccc34)nc2C#N)CC(C)O1 (stereo unspecified)	i	x	-2.4	-4.3	-8.3	x	11.7	0.1
COc1cccc(C2C(C(=O)c3cccs3)=C(O)C(=O)N2CCN2CCOCC2)c1 (stereo unspecified)	i	-22.9	-8.9	-1.3	-7.9	-16.5	-1.9	3.6

An excerpt from above in order of molar mass, largest number first.
SMILES	Rce1 inhib	Yeast UUG start	MT1-MMP act inh	MT1-MMP act inh RFP	CSC inhib	HIV Env fusion	eIF4H inh	PABP polyA inh	others
O=C(Cc1n[nH]c(=O)c2ccccc12)OCC(=O)N(Cc1ccccc1)Cc1ccccc1	i	2.0	-0.1	-4.8	5.1	22.1	-7.4	-2.4
O=C(Nc1cc(C(F)(F)F)ccc1N1CCCCC1)c1cccc([N+](=O)[O-])c1	i	-8.1	-2.1	-2.6	32.6	98.0*	-2.2	-5.8
CCOC(=O)CNC(=O)Cn1cnc2c(nnn2-c2cccc(OC)c2)c1=O	i	-14.8	4.2	5.9	-5.6	-1.7	-3.2	-6.6
O=C(NC(=O)N1CCSCC1)c1c(Cl)cccc1Cl	i	x	-1.5	0.0	0.0	-5.1	3.9	-10.6
Cc1ccccc1NC(=O)/C(=C/c1ccco1)c1ccccc1	i	-7.5	-0.7	-3.8	10.9	x	-7.1	-1.7

Compound activity: PubChem BioAssay, several laboratories
